From PubChem BioAssay
HNF4A DNA FP = change in binding of human HNF4A to DNA, primary screen, biochemical, fluorescence polarization, FITC-DNA; activity change, % at 10 µM; Hepatocyte nuclear factor 4-alpha (Homo sapiens), P41235; 1 h; 0.3% of 360,000 active; in the data active means activity change above about 30%, passing the limit was not always enough;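 further: controls were the assay level and a saturating level of protein; the project sought stronger binding though the title names inhibitors; some compounds called inactive have numbers as strong as hits; positive values seem to mean higher polarization but the record does not say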
UCH37 inh = inhibitors of human UCH37 deubiquitinase, primary screen, biochemical, Ub-AMC cleavage, fluorescence; Ubiquitin carboxyl-terminal hydrolase isozyme L5 (Homo sapiens), Q9Y5K5; purified proteasome/UCH37; inhibition, % (test concentration not listed); 0.33% of 330,000 active; AID 588478, 2011;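 active means mean of two replicates above 20%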;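 further: 0% = compound-free wells with enzyme and 100% = wells lacking proteasome; stock transfer was 100 nL into about 20 µL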
Target sequence (Q9Y5K5 whole entry, looked up): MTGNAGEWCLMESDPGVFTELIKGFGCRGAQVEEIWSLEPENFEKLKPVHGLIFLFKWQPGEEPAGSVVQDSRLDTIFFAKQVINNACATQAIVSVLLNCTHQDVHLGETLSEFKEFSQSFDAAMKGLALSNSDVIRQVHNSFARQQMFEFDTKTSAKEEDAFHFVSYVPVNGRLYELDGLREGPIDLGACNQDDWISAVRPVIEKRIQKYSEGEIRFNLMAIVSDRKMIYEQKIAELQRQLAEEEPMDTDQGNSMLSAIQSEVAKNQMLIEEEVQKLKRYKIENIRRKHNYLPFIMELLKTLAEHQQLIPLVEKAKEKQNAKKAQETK
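Material: Human UCH37 enzyme supplied as purified proteasome complex | Schedule: 30 min preincubation with enzyme, 25 min cleavage at room temperature | Detection: AMC fluorescence 355/460 nm | Measure: % inhibition of Ub-AMC cleavage fluorescence | Controls: Wells without proteasome as full block, compound-free enzyme plus substrate as uninhibited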
LANA-H2B inh = blockers of LANA interaction with H2A/H2B – biochemical, FP readout, HTS, primary screen | Protein LANA1 (Human herpesvirus 8 type P (isolate GK18)), Q9QR71 | cell-free LANA-H2A/H2B peptide, fluorescence polarization | inhibition, % (no concentration beside the values) | 0.6% of 320,000 active; in the data active means inhibition mostly above about 10%, no sharp cut-off; inactive means mostly below about 6.7%;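 further: stock transfer was 7.5 nL into about 10 µL; 0% = median of vehicle wells and 100% = median of positive control wells; one replicate is shown; the record names a cut of 25% in any replicate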
E coli growth = E. coli growth inhibition, primary screen, OD600. Escherichia coli growth, 23 h; active compounds read low. OD600 absorbance (no concentration beside the values). 0.21% of 330,000 active. AID 1053175, 2014;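 active means OD600 absorbance below the run mean of sample wells minus 3.6 SD, in any replicate, cut at about 0.56 in these data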;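 further: stock transfer was 300 nL into about 60 µL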
Beta2AR agonist = beta2AR agonists driving receptor internalization, primary screen, cell-based, FAP fluorogen, flow cytometry; Beta-2 adrenergic receptor (Homo sapiens), P07550; Am2.2-beta2AR cells; reference of the scale not given here; response, % (no concentration beside the values); 0.43% of 340,000 active; AID 504454, 2011;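 active means response above a set limit, near 3 SD of response in nonfluorescent compounds, cut at about 42% in these data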;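 further: stock transfer was 100 nL into about 11 µL; a reference agonist was the positive control; negative values mostly stem from fluorescent compounds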
Target sequence (P07550 whole entry, looked up): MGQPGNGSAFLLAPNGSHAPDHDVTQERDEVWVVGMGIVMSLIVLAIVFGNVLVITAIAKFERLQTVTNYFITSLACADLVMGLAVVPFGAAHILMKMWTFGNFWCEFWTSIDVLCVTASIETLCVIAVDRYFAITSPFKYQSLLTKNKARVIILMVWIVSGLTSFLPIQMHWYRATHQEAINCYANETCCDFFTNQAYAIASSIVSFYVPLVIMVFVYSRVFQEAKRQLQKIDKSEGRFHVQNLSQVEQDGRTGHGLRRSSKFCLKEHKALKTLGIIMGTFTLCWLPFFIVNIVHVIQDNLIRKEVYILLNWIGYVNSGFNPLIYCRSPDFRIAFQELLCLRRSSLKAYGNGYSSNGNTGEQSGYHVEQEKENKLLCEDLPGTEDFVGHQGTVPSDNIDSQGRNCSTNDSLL
ALR inh = inhibitors of human ALR sulfhydryl oxidase, primary screen, biochemical, H2O2 detection, HRP-luminol luminescence, single point; inhibition, % (no concentration beside the values); FAD-linked sulfhydryl oxidase ALR (Homo sapiens), P55789; purified ALR, DTT oxidation; 3.8% of 290,000 active;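 active means mean and each replicate at 75% or more; inconclusive means only one of the two met; inactive means neither met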;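 further: stock transfer was 7.5 nL into about 7.5 µL; 0% = neutral wells and 100% = wells with inactivated enzyme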
Target sequence (P55789 whole entry, looked up): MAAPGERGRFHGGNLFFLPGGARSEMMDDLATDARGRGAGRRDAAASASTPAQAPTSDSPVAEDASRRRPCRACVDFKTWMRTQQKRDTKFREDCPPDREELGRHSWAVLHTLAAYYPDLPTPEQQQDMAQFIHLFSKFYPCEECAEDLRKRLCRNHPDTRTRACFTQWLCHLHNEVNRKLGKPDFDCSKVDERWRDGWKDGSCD
FGF22 binding = binders of human FGF22 protein, primary screen, FGF22 synaptogenesis inhibitor project, biophysical, thermal shift, single point. 1.5% of 340,000 active. recombinant FGF22 thermal shift, SYPRO orange fluorescence; percent of sucrose octasulfate shift, DMSO zero. calls only at 9.99 µM. Fibroblast growth factor 22 (Homo sapiens), Q9HCT0;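 active means melting point raised past a set limit in the mean and every replicate; inconclusive means no clear call; three in four hits are not shown here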
Numbers without * were called inactive; i = inactive; ? = inconclusive; · = not tested or not shown; + = active, no number. The list is partial. The share of hits here may be higher or lower than overall.

Order of values – HNF4A DNA FP | UCH37 inh | LANA-H2B inh | E coli growth | Beta2AR agonist | ALR inh | FGF22 binding
COC(=O)c1cc(OC)c(OC)cc1NC(=S)N1CCC(C(N)=O)CC1
    0.3 | 3.7 | 4.7 | 0.74 | 8 | -6 | ·
c1ccc(N2CCN(Cc3cn4cccnc4n3)CC2)cc1
    1.8 | 4.2 | 0.4 | 0.78 | -11 | ? | i
O=C(CN1C(=O)c2ccc([N+](=O)[O-])cc2C1=O)NC1CCCCCC1
    2.2 | 2.5 | -4.8 | 0.7 | -3 | 8 | i
CC(=O)C1=C(O)C(=O)N(c2cccnc2)C1c1ccc([N+](=O)[O-])cc1 (centres undefined)
    · | 9.0 | 11 | 0.67 | · | 37 | i
Cc1ccc(-n2nnnc2SC(C(=O)c2c[nH]c3ccccc23)c2ccccc2)cc1 (centres undefined)
    2.4 | 3.2 | -2.5 | 0.7 | 7 | · | ·
N#Cc1c(-c2cccs2)cc(-c2cccnc2)nc1N
    -1.3 | -346 | 0.7 | 0.71 | 6 | -7 | ·
CCOc1ccc2nc(SCC(=O)N(CCOC)c3c(N)n(Cc4ccccc4)c(=O)[nH]c3=O)[nH]c2c1
    1.0 | 1.0 | -5.3 | 0.68 | -4 | 1 | i
CC(C)(C)c1cc(C(=O)NCc2ccco2)ccn1
    -2.0 | 4.6 | 1.0 | 0.69 | 7 | -10 | ·
COC(=O)CCSCC(=O)Nc1nnc(C)s1
    -1.8 | 1.6 | -0.5 | 0.74 | 0 | -3 | i
CCCCN(C(=O)CN1CC(C)OC(C)C1)c1c(N)n(CC(C)C)c(=O)[nH]c1=O (centres undefined)
    2.2 | 3.3 | -0.7 | 0.71 | 8 | -3 | i
Cc1cc(N2C(=O)C(O)=C(C(=O)c3cc4ccccc4o3)C2c2ccc(Cl)cc2)no1 (centres undefined)
    0.8 | · | -2.8 | · | 12 | -3 | i
C/C(CC(=O)Nc1cc(C)ccn1)=N\NC(=O)c1cccc(C)c1
    2.6 | · | -0.4 | · | -6 | 0 | ·
COC(=O)c1cc(Br)c(=O)n(CCN2CCCC2)c1
    2.9 | 1.7 | -1.2 | 0.74 | -5 | -3 | ·
CCN1CCN(c2ncnc3scc(-c4ccc(C)cc4)c23)CC1
    -1.7 | 3.9 | 3.5 | 0.71 | 4 | -9 | i
O=C1NCCN1c1ncc([N+](=O)[O-])s1
    -0.3 | 1.3 | -1.7 | 0.066* | 3 | -8 | i
Cc1cccc(C)c1NC(=S)NCCCN1CCCC1=O
    -0.3 | 2.9 | -1.7 | 0.73 | 5 | · | ·
O=C(Nc1ccc2c(c1)OCCO2)C1CCCN(c2ncccn2)C1 (centres undefined)
    0.4 | 4.3 | 3.0 | 0.66 | -4 | -3 | ·
Cc1ccc(Cn2nnc3c(=O)[nH]c(C(=O)NCc4ccco4)nc32)cc1
    -0.9 | 4.6 | 0.9 | 0.65 | 1 | 14 | ·
Cn1ccnc1SCC(=O)N1CCc2ccccc21
    2.6 | 1.9 | -0.3 | 0.66 | -1 | -5 | i
N#CCc1ccc(NC(=O)c2ccc(S(=O)(=O)N3CCCC3)cc2)cc1
    0.2 | 0.9 | -16 | 0.67 | 11 | · | i
COc1ccc(/C=C(/NC(=O)c2ccc(C)cc2)c2nc3ccccc3[nH]2)cc1OC
    -0.6 | 3.0 | -5.5 | 0.72 | -3 | · | ·
CCCc1cc(=O)n2nc(N3CCC(C(=O)N4CCN(c5cccc(OC)c5)CC4)CC3)sc2n1
    -1.2 | 3.9 | 0.5 | 0.69 | 4 | 53 | i
CC1CN(S(=O)(=O)c2ccc(C(=O)NCCCn3ccnc3)cc2)CC(C)O1 (centres undefined)
    2.4 | -1.4 | -4.6 | 0.66 | 7 | 0 | i
COc1ccc(-c2cc(C(=O)Nc3cc(OC)c(OC)c(OC)c3)no2)cc1
    1.9 | 1.8 | 3.2 | 0.68 | -11 | -1 | i
O=C(Nc1ccncc1)c1ccc(N2CCCC2=O)cc1
    -1.8 | 1.9 | -1.6 | 0.62 | -1 | 15 | i
COc1cc(C(C(=O)NC2CCCCC2)N(Cc2ccco2)C(=O)c2cnccn2)cc(OC)c1OC (centres undefined)
    5.1 | 1.6 | -2.9 | 0.65 | 2 | -2 | i
Cc1[nH]c2ccccc2c1SCC(=O)N1CCCCC1
    -2.2 | 3.5 | -0.1 | 0.68 | -2 | ? | i
Cc1nc(COC(=O)c2cc(O)c3ccccc3c2O)cs1
    -0.5 | -55 | · | 0.68 | 2 | · | i
O=C(O)/C=C/C(=O)N1CCc2ccccc21
    -0.9 | 5.0 | 2.6 | 0.65 | -1 | -6 | i
COc1cc(/C(=C/c2ccccc2)c2ccccc2)c2c(c1)oc1ccccc12
    -0.8 | -13 | -2.4 | · | 1 | -2 | i
COc1ccc(C2N(c3ccc(C)cc3)CCN2c2ccc(C)cc2)cc1O
    0.8 | 4.3 | -2.6 | 0.68 | 10 | 32 | i
CCCCCN(C(=O)CCC(=O)OC(C)C(=O)c1ccc(Cl)cc1)c1c(N)n(CCCC)c(=O)[nH]c1=O (centres undefined)
    -2.6 | -0.6 | 3.1 | 0.69 | 8 | -11 | i
COC(=O)C1(S(=O)(=O)c2cccc3nsnc23)CC1
    2.0 | 5.3 | -12 | 0.81 | 0 | -43 | ·
O=C1CCC/C=C\C[C@H](CC(=O)N(CCO)Cc2ccccc2)C(=O)N2CCC[C@@H]2CO1
    2.2 | -1.4 | -8.7 | · | 0 | 0 | i
Cc1ccc(Cn2ccc(NC(=O)c3nn(C)cc3Cl)n2)cc1
    0.3 | 2.6 | -0.7 | 0.82 | 0 | 2 | ·
Cc1ncc(CO)c(CO)c1O
    1.6 | -3.0 | -2.4 | 0.69 | 0 | 0 | i
Fc1ccccc1N1CCN(C2CCCN(Cc3ccccc3C(F)(F)F)C2)CC1 (centres undefined)
    0.1 | -0.1 | -0.4 | 0.63 | -4 | · | i
COc1cc(NC(=O)Nc2ccccc2OC)c(OC)cc1NC(=O)CN1CCCCC1
    -2.3 | 0.7 | -1.4 | 0.71 | 16 | -64 | ·
Cc1ccnc(NC(=O)c2cc3ccccc3o2)c1
    0.6 | -0.6 | -4.7 | 0.67 | -2 | 0 | i
CCOC(=O)c1sc(C)c2c(=O)n(CC)nnc12
    4.0 | 8.1 | -2.6 | 0.69 | -5 | 4 | ·
CN(C(=O)COC(=O)c1ccc(Cl)nc1)c1c(N)n(Cc2ccccc2)c(=O)[nH]c1=O
    -0.2 | 2.7 | · | 0.67 | -5 | 2 | i
Cc1ccc(CNC(=O)CSc2ncccn2)cc1
    -2.1 | 4.8 | -2.6 | 0.7 | 0 | -11 | ·
CCC(CC)NC(=O)c1cc(OC)c(OC)cc1[N+](=O)[O-]
    1.7 | 6.4 | 5.9 | 0.75 | -7 | -3 | ·
O=C1CCCCN1CCC(=O)N1CCCC(N2CCN(c3cccc(Cl)c3)CC2)C1 (centres undefined)
    3.0 | -1.1 | -1.4 | 0.71 | 4 | ? | i
COc1cc(/C=N/NC(=O)c2ccccc2NS(=O)(=O)c2cccs2)ccc1O
    2.8 | · | · | · | 11 | · | i
Cc1cccc(Nc2cc(=O)n(C)c(=O)[nH]2)c1
    -1.4 | 2.4 | 1.5 | 0.72 | -5 | 42 | i
O=C(CN1C(=O)COc2ccccc21)NCc1ccc(C(=O)O)cc1
    -1.7 | -1.5 | 1.9 | 0.7 | 0 | 1 | ·
Cc1noc2ncnc(Oc3ccc4ccccc4c3)c12
    -0.6 | · | -2.3 | 0.68 | -4 | -17 | ·
C#CCOc1ccc(Cl)cc1/C=C1/C(=O)ON=C1C
    0.8 | 1.4 | -2.9 | 0.72 | -4 | 18 | i
Cc1ccc2nc(-c3ccccn3)[nH]c2c1
    -3.8 | -6.9 | 1.8 | 0.69 | 5 | -1 | i
Cc1nc(SCc2nc3cc(Cl)c(F)cc3[nH]2)c2oc3ccccc3c2n1
    6.4 | 4.3 | 2.8 | 0.73 | 8 | 2 | i
COc1ccccc1Cn1nc(C(=O)O)c2ccccc2c1=O
    1.0 | 4.5 | -1.3 | 0.69 | 0 | 3 | i
O=C(CCC1CCCC1)N1CCN(C2CCCC2)CC1
    2.1 | 3.5 | -3.2 | 0.73 | 2 | -22 | ·
Cc1cc(=O)oc2cc(NC(=O)c3cc(F)ccc3F)ccc12
    12 | -93 | -5.0 | 0.72 | -1 | -5 | i
COc1ccc(NS(=O)(=O)c2c(F)cc(F)c(Cl)c2F)cc1S(=O)(=O)N1CCCCC1
    -1.6 | 1.5 | -1.7 | 0.69 | 3 | 1 | ·
Cc1nn(Cc2ccccc2)c(=O)n1N(C)c1ncc(C(F)(F)F)cc1Cl
    2.9 | 1.4 | 0.3 | 0.72 | -6 | -1 | ·
Cc1ccc(-n2nc(C)c3c(C)c(CCC(=O)Nc4ccc(CN5CCCC5)cc4)c(C)nc32)cc1
    1.9 | · | -0.7 | · | · | · | i
COc1cc(C2C(C#N)=C(N)Oc3n[nH]c(-c4cccnc4)c32)cc(Br)c1O (centres undefined)
    1.0 | 4.3 | 1.8 | 0.68 | 7 | 50 | +
CC(=O)c1cccc(NC(=O)C2C3C=CC(C4CC34)C2C(=O)O)c1 (centres undefined)
    1.5 | 1.9 | -4.4 | 0.72 | -4 | -1 | ·
Cc1ccc(NC(=O)CSc2nnc(COc3ccccc3F)n2N)cc1S(=O)(=O)N1CCOCC1
    -3.7 | 4.0 | · | 0.69 | -1 | · | i

In a second layout: 2 of the compounds above.
| Molecule | HNF4A DNA FP | UCH37 inh | LANA-H2B inh | E coli growth | Beta2AR agonist | ALR inh | FGF22 binding |
| --- | --- | --- | --- | --- | --- | --- | --- |
| Cc1cccc(Nc2cc(=O)n(C)c(=O)[nH]2)c1 | -1.4 | 2.4 | 1.5 | 0.72 | -5 | 42 | i |
| Cc1nc(SCc2nc3cc(Cl)c(F)cc3[nH]2)c2oc3ccccc3c2n1 | 6.4 | 4.3 | 2.8 | 0.73 | 8 | 2 | i |

Carrying on:
Order of values – HNF4A DNA FP | UCH37 inh | LANA-H2B inh | E coli growth | Beta2AR agonist | ALR inh | FGF22 binding
Cn1c(=O)c2c(-c3ccccc3)n(C3CCCCC3)cc2n(C)c1=O
    2.2 | -16 | 2.1 | 0.71 | 1 | 2 | ·
NNC(=O)CSc1nnc(-c2ccccc2)n1-c1ccccc1
    2.7 | 2.3 | -0.7 | 0.7 | 0 | 49 | i
CC12CCC(C(=O)N3CCN(Cc4ccccc4)CC3)(OC1=O)C2(C)C (centres undefined)
    0.3 | -0.5 | 7.4 | 0.66 | -4 | -8 | i
O=C(c1ccco1)N1CCCC(c2nc(-c3ccc(S(=O)(=O)NCc4ccccc4)cc3)no2)C1 (centres undefined)
    -0.8 | 3.8 | -4.6 | 0.75 | -6 | -26 | ·
CN(C)CCCN(C(=O)c1ccc(S(=O)(=O)N2CCOCC2)cc1)c1nc2cc3c(cc2s1)OCO3
    -0.8 | 3.1 | 1.0 | 0.69 | 3 | 1 | i
Cc1cccc(N2C(=O)C(Oc3ccc(Cl)cc3Cl)C2C=O)c1C (centres undefined)
    0.8 | 0.2 | 3.3 | · | 20 | -11 | i
CCOc1cc(/C=C(\C(=O)O)c2ccc(S(=O)(=O)N3CCCC3)s2)ccc1OC
    -7.9 | 2.5 | -2.6 | 0.68 | 3 | -4 | i
